PrP 5UTR inh – inhibition of PrP 5' UTR reporter expression | cell-based PrP 5' UTR mRNA reporter, plate reader | inhibition, % (concentration not given with the values) | hit rate 0.35% among 340,000 | AID 488862, 2010;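 active = every replicate at 50% or more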;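 note: 0 = median of the neutral control wells; tested in H4 reporter cells; numbers are from one replicate; inactives centre near -14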
Bead autofluor – compound fluorescence in toxin protease inhibitor counterscreen; AID 624483; hit rate 3.1% among 360,000; compound autofluorescence counterscreen, microsphere flow cytometry; hits give high values; fluorescence intensity (test concentration not listed);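 active = at least 3 SD above the mean of all compounds, about 16000 in these data; inconclusive = too few beads counted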;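 note: 100 nL of 1 mM stock went into each well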
Sa ugtP lethal – growth inhibition of ugtP-null S. aureus, primary screen, RN4220 ugtP deletion, OD600; 16 h; some inactives read as strong as hits; hit rate 0.54% among 330,000; growth inhibition, % (test concentration not listed);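 active = z-score under -3 and OD600 up to 0.15 on both plates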;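 note: plate controls were untreated wells for no effect and antibiotic for full effect; wells of about 80 µL received 100 nL stock; the first replicate is given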
Mtb hypoxia inh – PubChem AID 1159583. hit rate 0.1% among 300,000. M. tuberculosis hypoxia-regulated fluorescent reporter, fluorescence. fluorescence inhibition, % (concentration not given with the values);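 active = 35 to 45% if threefold the growth effect, above 45% if 1.5-fold the growth effect; inactive = the rest, general growth blockers included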;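 note: wells of about 50 µL received 100 nL stock; 0% = vehicle wells and 100% = reference inhibitor wells; whole bacteria with a GFP reporter of the hypoxia response; strong numbers were not always called active; many hits fall short of the cut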
BJeLR viability – MLPCN primary cell-based screen for lethality selective to Ras in HRASV12 cells | BJeLR (HRASV12) viability, CellTiter-Glo ATP luminescence, 48 h; reference of the scale not given here | inhibition, % (concentration not given with the values) | hit rate 0.17% among 300,000 | AID 1554, 2009;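 active = replicate mean above 50%; inconclusive = above 50% but judged a plate artefact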;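 note: 50 nL library stock added to about 25 µL; numbers are from one replicate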
RN4220 kill – growth inhibition of S. aureus RN4220, primary screen, OD600. AID 1259311, 2017. hit rate 0.33% among 330,000. inhibition, % (no concentration beside the values). 16 h;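 active = z-score of -3 or lower and OD600 up to 0.18 on both plates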;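 note: plate controls were untreated cells for no effect and reference antibiotic for full effect; stock transfer was 100 nL into about 80 µL; one replicate is shown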
Mtb hypoxia inh growth – second read-out of Mtb hypoxia inh, no call of its own (marks repeat the call); growth inhibition, %; measured here: M. tuberculosis growth (absorbance);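 0% = vehicle and 100% = reference antibiotic; read after six days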
Active calls of the source: *; ? = inconclusive; nt = not tested or not shown.

SMILES | PrP 5UTR inh | Bead autofluor | Sa ugtP lethal | Mtb hypoxia inh | Mtb hypoxia inh growth | BJeLR viability | RN4220 kill
N#Cc1ccc(C(=O)NC2=NCCS2)cc1 | -32.8 | 2863 | 5.1 | 3.8 | 4.6 | -5.8 | 3.1
CN(C)S(=O)(=O)c1ccc(Cl)c(NC(=O)CN2CCC(Cc3ccccc3)CC2)c1 | -19.0 | 4533 | -0.9 | -0.5 | -2.5 | -4.9 | -1.9
NS(=O)(=O)c1ccc(Nc2ncccc2[N+](=O)[O-])cc1 | -2.8 | 8315 | 1.2 | -5.7 | 2.8 | 17.6 | 4.4
CC(OC(=O)CCN=C1NS(=O)(=O)c2ccccc21)C(=O)c1ccccc1 (configuration not stated) | -2.9 | ? | nt | nt | nt | 3.9 | nt
CCC(=O)Nc1cccc(NC(=O)c2ccc(C)c([N+](=O)[O-])c2)c1 | -26.3 | 10494 | 0.2 | -3.3 | 5.0 | -6.8 | 2.5
CCNC(=S)N(Cc1cc2cc(C)c(C)cc2[nH]c1=O)C1CCCC1 | -5.6 | 3538 | 6.3 | 6.8 | 7.2 | 0.1 | 4.7
O=C(NN=c1c(=O)c2ccccc2c1=O)c1ccccc1 | -24.1 | 5823 | -2.9 | 2.6 | 1.8 | -3.0 | 3.0
CC(=O)c1cnc2n(c1=O)CCS2 | -9.7 | 3400 | 8.0 | 1.3 | 1.8 | -3.1 | 4.0
C#CCNC(=O)C1=C[C@H](c2ccc(C#C)cc2)C[C@H](OCc2ccc(CO)cc2)O1 | -25.2 | 4450 | nt | nt | nt | 8.7 | nt
O=C(COc1ccccc1[N+](=O)[O-])c1ccccc1 | -19.1 | 2662 | -1.7 | 11.4 | 5.8 | 3.3 | 0.9
Cc1cc(=O)n2nc(N3CCCC3C(=O)Nc3cccc(Cl)c3C)sc2n1 (configuration not stated) | 0.5 | 20778* | 1.8 | -4.2 | 12.2 | 8.5 | 7.5
COc1ccc(S(=O)(=O)N2CCOCC2)cc1NC(=O)COc1ccccc1OC | -10.9 | 5660 | 6.2 | -5.5 | 6.1 | -8.1 | -1.4
CC(OC(=O)COc1ccc(Nc2ccccc2)cc1)C(=O)N(C)c1ccccc1 (configuration not stated) | -3.1 | 3985 | -2.8 | 7.3 | -3.9 | -4.6 | -1.0
CCc1ccc(NC(=O)C(=O)c2cn(CC(=O)N3CCCCC3)c3ccccc23)cc1 | -16.8 | 7466 | 12.8 | -2.1 | -0.8 | -2.3 | 1.1
Cc1cc2c(c(=O)n1C1CC1)C(c1cccc(Cl)c1)C(C#N)=C(N)O2 (configuration not stated) | -9.2 | 9252 | -2.0 | 1.5 | -2.4 | 4.0 | 3.6
CN(C)S(=O)(=O)c1ccc(Cl)c(NC(=O)COC(=O)[C@@H]2CCCN2C(=O)c2cccs2)c1 | -19.5 | 4123 | 3.2 | -6.7 | 4.9 | 8.3 | 3.8
O=C(NN=Cc1cccn1-c1ccc([N+](=O)[O-])cc1)C(O)c1ccccc1 (configuration not stated) | nt | nt | -7.6 | -1.0 | 7.0 | nt | 7.3
CCOC(=O)c1cc2cc(CC(=O)c3ccc(OCC)cc3O)ccc2o1 | -5.9 | 3945 | 3.3 | nt | nt | -3.8 | -0.6
CC(=O)Nc1nonc1-c1nc2ccccc2n1Cc1ccccn1 | -1.9 | nt | 3.6 | nt | nt | -11.1 | 3.4
Cc1ccc(NC(=O)c2sc(Cl)nc2C)c(C)c1 | -2.2 | 2206 | -0.4 | 4.6 | 5.2 | -2.8 | 4.2
CCOC(=O)C1CCN(C(=O)CSc2nccc(C)n2)CC1 | -28.8 | 3890 | -5.7 | -0.8 | 10.9 | 5.1 | 0.9
COc1ccc(-c2cc(=O)oc3cc(OCC(=O)Nc4ccccn4)ccc23)cc1 | -12.8 | 5889 | 2.8 | -5.0 | -6.0 | 8.8 | 0.8
COC(=O)c1sccc1NN=Cc1cccc(OC)c1O | nt | nt | -3.0 | -8.7 | 14.4 | nt | 5.3
O=C(CCl)N1N=C(c2ccco2)CC1c1cccs1 (configuration not stated) | -25.9 | 7722 | 11.6 | nt | nt | 18.9 | 10.4
Cc1ccc2nc(SCC(=O)NCc3cccs3)[nH]c2c1 | -7.5 | 4507 | -14.2 | -11.0 | -0.6 | 0.0 | -0.8

5 compounds already listed, sorted by number of heavy atoms, high to low.
SMILES | PrP 5UTR inh | Bead autofluor | Sa ugtP lethal | Mtb hypoxia inh | Mtb hypoxia inh growth | BJeLR viability | RN4220 kill
CN(C)S(=O)(=O)c1ccc(Cl)c(NC(=O)COC(=O)[C@@H]2CCCN2C(=O)c2cccs2)c1 | -19.5 | 4123 | 3.2 | -6.7 | 4.9 | 8.3 | 3.8
CN(C)S(=O)(=O)c1ccc(Cl)c(NC(=O)CN2CCC(Cc3ccccc3)CC2)c1 | -19.0 | 4533 | -0.9 | -0.5 | -2.5 | -4.9 | -1.9
CC(=O)Nc1nonc1-c1nc2ccccc2n1Cc1ccccn1 | -1.9 | nt | 3.6 | nt | nt | -11.1 | 3.4
Cc1ccc2nc(SCC(=O)NCc3cccs3)[nH]c2c1 | -7.5 | 4507 | -14.2 | -11.0 | -0.6 | 0.0 | -0.8
O=C(COc1ccccc1[N+](=O)[O-])c1ccccc1 | -19.1 | 2662 | -1.7 | 11.4 | 5.8 | 3.3 | 0.9

The list continues:
SMILES | PrP 5UTR inh | Bead autofluor | Sa ugtP lethal | Mtb hypoxia inh | Mtb hypoxia inh growth | BJeLR viability | RN4220 kill
COC(=O)CSc1nnc(-c2cccnc2)n1-c1cc(OC)cc(OC)c1 | -7.3 | 5107 | 0.3 | 8.0 | 12.6 | -11.9 | 5.2
CC(=O)NS(=O)(=O)c1ccc(NC(=O)c2cc(-c3ccc(C)cc3)nc3ccccc23)cc1 | -26.9 | 2395 | 5.5 | 9.0 | 10.6 | -8.4 | 0.3
O=C(CN1C(=O)NC2(CCCC2)C1=O)OCCOc1ccc(F)cc1 | -17.9 | 5198 | 1.9 | 10.0 | -1.5 | 7.1 | 0.7
Cn1c(CNC(=O)c2ccc(Cl)cc2)nnc1SCC(=O)NC1=NCCS1 | -36.5 | 3955 | 1.9 | -11.0 | 1.6 | -3.1 | 5.0
O/N=C1/C2C3C(Br)C4C5CC(C1C53)C24 (configuration not stated) | -18.8 | 2509 | nt | nt | nt | 13.1 | nt
CN1C(=O)/C(=C/c2ccc(OCc3ccc(F)cc3)cc2)NC1=S | -1.6 | 3533 | 3.0 | 0.4 | -0.1 | 0.3 | 13.8
O=C(CSc1nccn1-c1ccc(Cl)cc1)Nc1ccc2c(c1)OCO2 | -2.6 | 2795 | -1.6 | nt | nt | 4.0 | 2.9
O=C(NCCCO)c1nnc(Cc2c(F)cccc2Cl)o1 | -24.3 | 16086 | 9.8 | 2.2 | -3.4 | 8.0 | 5.1
COc1ccc(CNC(=O)CC(C)c2ccccc2)cc1 (configuration not stated) | -37.9 | 3877 | 6.8 | 22.6 | 16.1 | 0.8 | -1.5
N=Cc1c(O)n(-c2ccccc2)c(=O)n(-c2ccccc2)c1=O | -21.3 | 2751 | 8.6 | 14.6 | 5.6 | 0.4 | 3.6
CC(=O)c1oc2ccccc2c1N | -27.9 | 9192 | -5.5 | 1.0 | 2.0 | 1.8 | 1.2
CC1c2cc3c(cc2CCN1C(=O)c1cccc(F)c1)OCCCO3 (configuration not stated) | -17.5 | 5840 | 4.7 | 3.2 | 0.1 | -1.4 | 1.8
O=C(O)CCc1ccc(S(=O)(=O)Nc2cc(C(F)(F)F)ccc2N2CCCC2)cc1 | -13.1 | 5855 | 6.4 | 0.7 | 3.9 | nt | 14.4
CCOC(=O)C1=C(C)N=c2s/c(=C\c3ccc(OC(C)=O)cc3)c(=O)n2C1/C=C/c1ccccc1 (configuration not stated) | -1.6 | 2536 | nt | nt | nt | -6.0 | nt
CCCN1CCOC2c3cc(O)ccc3OCC21 (configuration not stated) | nt | nt | 1.5 | 9.3 | 2.2 | nt | 4.8
CCNc1c(NS(=O)(=O)c2ccc(F)c(Cl)c2)c(=O)oc2ccccc12 | -80.2 | 3828 | -1.9 | 8.3 | -1.8 | 1.6 | 7.9
CCN1CCN(C(=S)NC(CC(=O)c2ccccc2)c2ccccc2)CC1 (configuration not stated) | -26.6 | 3702 | 5.1 | 12.0 | 13.9 | -2.0 | 0.0
CC(Sc1ccc(Cl)cc1)C(=O)Nc1ccc2c(c1)OCO2 (configuration not stated) | -23.7 | 2434 | 14.2 | nt | nt | -1.0 | -0.2
NC(=O)c1ccc(NC(=O)C2CC2)cc1 | -15.2 | 2009 | 6.7 | 24.9 | 10.0 | 3.0 | 3.7
O=C(NCc1cccnc1)c1ccc2c(=O)n(CCCN3CCCC3=O)c(=S)[nH]c2c1 | -5.4 | ? | 12.5 | 15.1 | 2.8 | 6.5 | 5.3
CCOCCCNC(=O)c1cc2c(-c3ccc(Cl)cc3)nn(C)c2s1 | -14.5 | 5047 | 2.8 | nt | nt | 6.5 | 2.6
COc1cc(Cl)c(C)cc1NC(=O)CC1SC(N2CCOCC2)=NC1=O (configuration not stated) | -7.1 | 3929 | 1.0 | 16.4 | 7.6 | nt | 1.8
O=C(N/N=C/c1cc(O)ccc1Br)c1cccnc1 | -1.5 | 3757 | nt | nt | nt | 7.7 | nt
CCOCCCNC(=O)CCC(=O)NNc1nc2ccccc2c2nc(-c3ccccc3)nn12 | -9.9 | 2465 | 3.1 | -2.2 | -10.8 | 6.5 | -2.4
CC1(C(=O)OCC(=O)Nc2cc(S(=O)(=O)N3CCOCC3)ccc2Cl)CC1(Cl)Cl (configuration not stated) | -8.2 | 3572 | 0.8 | 21.3 | 41.5 | nt | 4.0
SMILES | PrP 5UTR inh | Bead autofluor | Sa ugtP lethal | Mtb hypoxia inh | Mtb hypoxia inh growth | BJeLR viability | RN4220 kill
Cc1ccc(NC(=S)NNC(=O)c2ccc(N3CCOCC3)c([N+](=O)[O-])c2)cc1Cl | -27.1 | 2483 | nt | nt | nt | 5.8 | nt
COc1cccc(CC(=O)OCC(=O)NCCc2ccc(F)cc2)c1 | -6.6 | 3714 | 1.8 | -4.3 | -3.6 | nt | -0.9
Cc1cc(C(=O)NCc2ccc3c(c2)OCO3)ccc1[N+](=O)[O-] | -19.3 | 3680 | 2.6 | -2.3 | 4.0 | 6.2 | 4.1
CC1CCCCC1NC(=O)COC(=O)CN1C(=O)c2ccccc2C1=O (configuration not stated) | -24.5 | 7843 | 3.5 | 19.3 | 40.0 | nt | 1.3
COc1cc(CN(C(=S)NCC(=O)N2CCCC2)C2CCCC2)cc(OC)c1OC | -21.7 | 3899 | 5.9 | -2.9 | 9.0 | 1.0 | 0.3
O=C(NC(Cc1ccccc1)C(=O)O)/C(=C\c1ccc([N+](=O)[O-])cc1)NC(=O)c1ccco1 (configuration not stated) | 0.9 | 5709 | -0.6 | 15.7 | -39.4 | -8.6 | -0.7
COCCCNC(=O)c1ccc2c(=O)n(CC3CCCO3)c(=S)[nH]c2c1 (configuration not stated) | -21.7 | 16266* | 0.8 | 3.6 | -1.3 | -1.9 | 11.8
COc1ccc(OC)c(NC(=O)CSc2nc3scc(C)c3c(=O)[nH]2)c1 | -22.0 | 2943 | nt | nt | nt | -3.9 | nt
O=C(Nc1ccc(-n2cnnn2)cc1)C1CCCN1C(=O)Nc1ccc(Br)cc1 (configuration not stated) | -33.2 | 3587 | -2.0 | -3.9 | 7.6 | -0.4 | 0.2
CCOc1ccc(NS(=O)(=O)c2ccc(C(=O)NCCCN3CCOCC3)cc2)cc1 | -3.4 | 5772 | 4.8 | -1.2 | -1.1 | 9.9 | 0.9
COc1ccc(NS(=O)(=O)c2ccc(/C=C/C(=O)O)cc2)cc1S(=O)(=O)N1CCOCC1 | -8.8 | 4299 | 1.7 | 10.3 | -0.3 | 3.4 | 5.4
Cc1ccc(N(CC(=O)NC(C)c2ccccc2)S(=O)(=O)c2c(C)n[nH]c2C)cc1 (configuration not stated) | 2.4 | 4587 | 3.7 | 0.5 | -1.8 | 5.3 | 0.8
COc1ccc(Cl)cc1NC(=O)CN1CCN(C(=O)N2CCOCC2)CC1 | -11.4 | 5861 | 4.5 | 4.9 | 9.7 | 3.8 | 2.3
CN(CC(=O)Nc1c(Cl)cccc1Cl)C(=O)CCNS(=O)(=O)c1ccccc1C(F)(F)F | -1.8 | 5876 | nt | nt | nt | 9.6 | nt
Cc1ccc(NC(=O)CN(C)C(=O)COc2cccc3ccc(C)nc23)cc1 | -14.3 | 3747 | 0.6 | 3.6 | -1.7 | nt | 3.5
O=C(Cn1nnc(-c2ccc(F)cc2)n1)Nc1ccc2c(c1)OCCO2 | -5.4 | 3530 | -3.5 | -1.9 | 7.5 | -2.0 | -3.1

Screens: PubChem BioAssay, several laboratories
